StopGo reporter = High Throughput Screening for Foot and Mouth Disease Virus Antivirals | actives 1.2% (n = 410,000) | AID 1159524, 2015 | human cells with a luciferase reporter of 2A StopGo recoding; control for the full effect not named in the record | Potency, µM (titrated, usually from 57.9 µM), without a hit: at the top dose signal change, negative = less light; active = well fitted falling curve with a large enough effect; inconclusive = small, poorly fitted or top-dose-only effect; inactive = no such curve, though single readings can be large or run the other way; tested in HEK293T cells; note: % is set by controls: 0 for no effect and ±100 for the full control effect; nearly all actives have a fitted effect of over 45% in size; luciferase light after 4 h
SARS PLpro yeast = qHTS of Yeast-based Assay for SARS-CoV PLP | S. cerevisiae expressing SARS-CoV PLpro, growth rescue; control for the full effect not named in the record | Potency, µM (titrated, usually from 32.9 µM), for inactives: at the highest dose activity, positive = growth rescue | actives 0.19% (n = 330,000) | AID 485353, 2010; note: 0% is about no effect; nearly all actives have a fitted effect of over 55% in size; growth read by luminescence after 48 h
MARV entry inh = qHTS for inhibitors of binding or entry into cells for Marburg Virus | Marburg virus pseudotyped entry inhibition, cell reporter; control for the full effect not named in the record; about a third of the inactives were read at about 46 µM | Potency, µM (highest dose often 37.8 µM), for the others: top-dose activity change, negative = inhibition, hits mostly inhibitors | actives 1.8% (n = 300,000); active = well fitted inhibition curve with a large enough effect; inconclusive = small, poorly fitted or top-dose-only effect, or effect the other way; inactive = flat fitted curve, though single readings scatter; tested in HEK293 cells; about a fifth of its hits are not listed in these tables; note: % is set by controls: 0 for no effect and ±100 for the full control effect; luciferase read-out
Cruzain inh noDet = qHTS Assay for Promiscuous and Specific Inhibitors of Cruzain (without detergent); purified cruzain, Z-FR-AMC fluorescence, no detergent; actives 2.3% (n = 200,000); Potency, µM, for inactives: max response, negative = inhibition, most hits filed as inhibitors; Cruzipain (Trypanosoma cruzi), P25779; active = well fitted curve in the direction sought with a large enough effect; inconclusive = small, poorly fitted or top-dose-only effect, or another doubt; inactive = no such curve, though single readings can be large; an effect the other way counts as inactive or inconclusive;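 note: plate controls were enzyme without inhibitor for no effect and buffer without enzyme for full effect; nearly all actives have a fitted effect of over 40% in size; top concentration of the series not given in the record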
Target sequence (P25779 123-467 limits assumed): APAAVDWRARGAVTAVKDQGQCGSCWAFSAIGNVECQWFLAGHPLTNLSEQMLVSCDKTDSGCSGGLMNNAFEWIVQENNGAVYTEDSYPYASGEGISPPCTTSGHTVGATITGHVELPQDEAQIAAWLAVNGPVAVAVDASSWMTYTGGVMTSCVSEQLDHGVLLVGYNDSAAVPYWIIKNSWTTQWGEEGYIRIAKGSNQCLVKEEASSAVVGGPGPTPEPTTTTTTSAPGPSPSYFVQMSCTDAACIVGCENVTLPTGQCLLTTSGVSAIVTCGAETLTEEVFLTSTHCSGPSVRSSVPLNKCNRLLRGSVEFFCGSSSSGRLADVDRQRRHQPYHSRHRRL
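Detergent-free condition (0.00005% Triton X-100) in acetate buffer pH 5.5 with DTT. 1.5 nM enzyme and compound were pre-mixed 15 min, then 2 uM Z-FR-AMC substrate added; reaction progress from fluorescence change between first and third reads (60 s).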
LASV entry inh = qHTS for Inhibitors of binding or entry into cells for Lassa Virus; Lassa virus pseudotype entry inhibition, cell reporter; control for the full effect not named in the record; Potency, µM (doses to about 37.9 µM), without a hit: top-dose activity change, negative = inhibition, usual class: inhibitors; actives 1.2% (n = 300,000); active means well fitted inhibition curve with a large enough effect; inconclusive means small, poorly fitted or top-dose-only effect, or effect the other way; inactive means flat fitted curve, though single readings scatter; tested in HEK293 cells; note: % is set by controls: 0 for no effect and ±100 for the full control effect; nearly all actives have a fitted effect of over 50% in size; luciferase read-out
NS1 function inh = qHTS Assay for Inhibitors of Influenza NS1 Protein Function. Potency, µM (top dose mostly 46.1 µM), for the others: at the highest dose activity, positive = more growth. AID 2326, 2010. actives 0.4% (n = 270,000). S. cerevisiae slowed by influenza A NS1, growth recovery by OD600; note: actives are rising curves; nearly all actives have a fitted effect of over 50% in size
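Read-out: OD600 growth recovery of NS1-expressing budding yeast. Cells grown overnight at 30C in -URA glucose medium, washed, resuspended and diluted 1:100 in 2% galactose assay medium, pH 6.0. Same strain lacking NS1 served as positive control.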
RE007 growth inh = qHTS Assay for Inhibitors of the HIV-1 protein Vpr; S. pombe RE007 Vpr strain, BacTiter-Glo ATP luminescence, 24 h; control for the full effect not named in the record; Potency, µM (top dose mostly 92.2 µM), for the others: at the top dose activity change, negative = less growth; actives 0.21% (n = 360,000); active = well fitted falling curve with a large enough effect; inconclusive = small, poorly fitted or top-dose-only effect; inactive = no such curve, though single readings can be large or run the other way;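 note: % is set by controls: 0 for no effect and ±100 for the full control effect; nearly all actives have a fitted effect of over 50% in size; the assay follows cell death caused by Vpr and the record does not say whether a fall means rescue or toxicity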
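Fission yeast strain RE007, carrying one chromosomally integrated HIV-1 vpr copy, was seeded at OD 0.01 in PMG+AL medium with 23 nL pinned compound. After 24 h at 30 °C and 99% humidity, viability was read by BacTiter-Glo luminescence.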
Cruzain Triton = qHTS Assay for Promiscuous and Specific Inhibitors of Cruzain (with detergent); actives 0.43% (n = 200,000); Potency, µM, without a hit: max response, negative = inhibition, usual class: inhibitors; purified cruzain, Z-FR-AMC fluorescence, 0.01% Triton; active = well fitted curve in the direction sought with a large enough effect; inconclusive = small, poorly fitted or top-dose-only effect, or another doubt; inactive = no such curve, though single readings can be large; an effect the other way counts as inactive or inconclusive;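 note: plate controls were neutral wells for no effect and buffer without enzyme for full effect; nearly all actives have a fitted effect of over 40% in size; top concentration of the series not given in the record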
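Steps: dispense cruzain (1.5 nM final) in acetate buffer pH 5.5 with DTT and 0.01% Triton X-100; pin-transfer compounds; incubate 15 min RT; add Z-FR-AMC (2 uM final); read fluorescence every 30 s, using the 60 s intensity change.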
The depositor's hits bear a star; ? = inconclusive; . = not tested or not shown; & = joins results of further samples; [ ] = dose if it differs, or a comment. Unless noted, calls come from the whole dose curve; as a rule, active means well fitted rising curve with a large enough effect; inconclusive means small, poorly fitted or top-dose-only effect; inactive means no such curve, though single readings can be large or run the other way. Potency is the fitted concentration of half-maximal effect.

SMILES | StopGo reporter | SARS PLpro yeast | MARV entry inh | Cruzain inh noDet | LASV entry inh | NS1 function inh | RE007 growth inh | Cruzain Triton
CC(N=C1CC(C)(C)CC(=O)/C1=C(/O)CCCN1C(=O)c2ccccc2C1=O)C(=O)O (stereo not given) | -3% | -5% | 19%[46.1 µM] | . | 12%[46.1 µM] | . | 1% | .
CCc1ccc(NC(=S)N(CCC(C)C)C2CCN(C(C)=O)CC2)cc1 | 9% | 1% | 8%[46.1 µM] | . | ? | 3% | -1% | .
CN1N=C(C(C)(C)C)CSC1=Nc1ccccc1 | 11% | 0% | 5%[46.1 µM] | . | ? | -3% | 8% | .
O=C(N/N=C/c1cccs1)c1cccc(S(=O)(=O)Nc2ccc(Cl)cc2)c1 | 25% | 0% | 22%[46.1 µM] | . | -6% | ? | 1% | .
Cc1cc(C)nc(/N=C/c2c(O)n(C)c(=O)n(C)c2=O)n1 | . | 3% | -2% | -6% | . | ? | . | 4.4%
COc1ccc(CC(=O)Nc2ccc(F)c(F)c2F)cc1S(=O)(=O)N1CCOCC1 | -9% | 0% | ? | . | 9% | . | 7% | .
Cc1c(OCC(=O)N2CCC(C(=O)O)CC2)ccc2c3c(c(=O)oc12)CCC3 | -16% | 4% | . | . | . | 2% | 11% | .
COc1cc(/C=N/Nc2nc(Nc3ccccc3)nc(N3CCOCC3)n2)ccc1OC(=O)c1ccco1 | -5% | -1% | 2.1µM* | . | ? | . | 5% | .
O=C(OCc1nnc(-c2ccccc2)o1)c1cc([N+](=O)[O-])ccc1Cl | -16% | -4% | -5%[46.1 µM] | . | . | . | 1% | .
CC(OC(=O)CCCc1nc2ccccc2s1)C(=O)NC(N)=O (stereo not given) | 7% | 0% | 0%[46.1 µM] | . | 3% | 6% | 9% | .
O=C1c2ccccc2C(=O)C1c1ccnc2ccccc12 | -55% | -19% | 7.3µM* | -16% | ? | -5% | -8% | -1.1%
COc1cc(OC)cc(C(=O)NCc2ccc3c(c2)OCO3)c1 | 22% | 11% | ? | . | -11% | -4% | 13% | .
CCc1ccc(N2CC(C(=O)Nc3nccs3)CC2=O)cc1 (stereo not given) | -20% | -1% | ? | 4% | 2% | -3% | -20% | 0.7%
O=C(c1ccc2c(c1)ncn2-c1ccc(F)cc1F)N1CCC2(CC1)OCCO2 | 50%[activator] | 1% | -3%[46.1 µM] | . | -29% | . | 2% | .
COc1ccc(-c2c(C)nc3c(-c4ccccn4)cnn3c2N)cc1 | 0% | -1% | ? | . | ? | -6% | 17% | .
COc1ccc(-c2ccc3c(N)c(C(=O)c4ccc(OC)c(OC)c4)sc3n2)cc1 | 6%&4% | -6% | 5%[46.1 µM] | ? | ? | 12% | 20% | -7.6%&-0.1%
Cc1c(C(=O)O)cccc1-n1c(C)cc(/C=N/NC(=O)c2cc3ccccc3o2)c1C | -3% | -8% | 4% | 11% | 8% | 15% | -2% | -12%
Cn1cnnc1Sc1cc(N2CCN(S(=O)(=O)c3ccccc3)CC2)ccc1[N+](=O)[O-] | -2% | 10% | -16% | ? | -8% | ? | 4% | -11%
CNc1nc(-c2ccccc2)nc(-c2ccc(OC)cc2)c1C#N | 5% | -3% | ? | . | 15%[46.1 µM] | 2% | -10% | .
CN1CCN(C(=O)c2ccccc2NC(=O)COc2ccccc2Cl)CC1 | -1% | -2% | 20% | . | -3% | -6% | -3% | .
CCOC(=O)c1ccc(CN(Cc2ccccc2C)S(=O)(=O)c2ccc(C(C)(C)C)cc2)cc1 | -6% | . | . | ? | 6%[46.1 µM] | . | . | 1.0%
Cn1c(SCC(=O)c2ccc3c(c2)OCO3)nnc1C1COc2ccccc2O1 (stereo not given) | -3% | 14% | 1% | ? | 3% | ? | -10% | -1.1%
CC#CC(=O)N1CCCC(Cc2cccc(OC)c2)(C(=O)OCC)C1 (stereo not given) | 52%[activator] | 3% | . | . | . | -14% | 1% | .
COc1ccc(Cc2nnc(NC(=O)c3ccccc3F)s2)cc1 | 18% | -3% | ? | . | ? | -30% | 1% | .
O=C(NNS(=O)(=O)c1ccccc1)C1CCN(S(=O)(=O)c2ccc(Cl)cc2)CC1 | 6% | -12% | 6% | -2% | 20% | 0% | 0% | -1.7%

(next part)
SMILES | StopGo reporter | SARS PLpro yeast | MARV entry inh | Cruzain inh noDet | LASV entry inh | NS1 function inh | RE007 growth inh | Cruzain Triton
O=C(CNc1cc(S(=O)(=O)N2CCCC2)ccc1OCC(F)(F)F)Nc1cccc(C(F)(F)F)c1 | ? | -8% | ? | 5% | ? | ? | 4% | -6.5%
CCOC(=O)c1cccc(NC(=O)N2CC(CC)Oc3ccccc32)c1 (stereo not given) | -11% | . | . | 9% | 7%[46.1 µM] | . | . | -1.4%
COc1ccc(CCN2CC(C(=O)N(C)Cc3ccc(C)o3)CCC2=O)cc1 (stereo not given) | 37%[activator] | -2% | ? | . | ? | -3% | 12% | .
Cc1cc(Nc2nc3c(c(=O)n(C)c(=O)n3C)n2C)n(-c2ccc(Cl)cc2)n1 | -13% | 1% | 3% | 29% | 3% | 0% | 0% | 7.6%
CNc1nc(-c2ccccc2)nnc1C(F)(F)F | 29% | -7% | 30% | -11% | -21% | -7% | -19% | 0.1%
COC(=O)c1ccc(NC(=S)NCC2CC2)cc1 | 44%[activator] | -1% | . | . | . | -2% | 6% | .
c1ccc(N2CCN(c3nc4ccccc4n4nnnc34)CC2)cc1 | -25% | -12% | -2%[46.1 µM] | 25µM* | -9% | 22% | -6% | 3.8%
Cc1ccc(NC(=O)C2C3C=CC4(CN(Cc5cccnc5)C(=O)C24)O3)cc1 (stereo not given) | 38%[activator] | -13% | -2% | -10% | 6% | -3% | 1% | 0.0%
Cc1ccccc1OCCn1cc(C(=O)c2ccco2)c2ccccc21 | -10% | . | ? | 16% | -8%[46.1 µM] | . | . | -8.8%
CC(=O)Nc1ccc(C(=O)N2CCCc3ccccc32)cc1 | 8% | 6% | 29% | . | -1% | -6% | 1% | .
Cc1ccc(S(=O)(=O)c2nnn3c2nc(N2CCCCC2)c2ccccc23)cc1 | -7% | 27% | ? | ? | 29% | 10% | 5% | -4.9%
Cc1ccc(C(=O)C(C)Oc2ccc3ccc(=O)oc3c2)cc1 (stereo not given) | -6% | -9% | 6% | . | -2% | -10% | 1% | .
O=C(COc1ccccc1)Nc1cc(Cl)ccc1Cl | 49%[activator] | 1% | . | . | . | 6% | 5% | .
CCc1cccc(-n2nnc(-c3nc(-c4ccccc4Cl)no3)c2N)c1 | 6% | . | . | -3% | 4%[46.1 µM] | . | . | 0.6%
CCOC(=O)c1c(N)sc2c(O)c(Br)ccc12 | 14% | -28% | -1% | 3% | -6% | -186% | 20% | -3.4%
O=C1c2cccc3c([N+](=O)[O-])ccc(c23)C(=O)N1c1nccs1 | 35µM* | -4% | ? | -28% | ? | -90% | ? | -2.9%
Cc1ccc(CNC(=O)CCCCCn2c(=O)[nH]c3ccccc3c2=O)cc1 | 22% | . | . | -8% | ? | . | . | 2.3%
CCOC(=O)CNc1c(-c2ccc(F)cc2)nc2cnccn12 | 6% | -4% | 15% | 13% | 10% | -4% | -2% | -14%
C/C=C/c1ccc(OCC(O)CN2CCCCCCC2)c(OC)c1 (stereo not given) | 8% | 2% | ? | . | 9% | . | -29% | .
COc1ccc(N2CCN(C(=O)CCc3c(C)nc4cc(-c5ccc(OC)cc5OC)nn4c3C)CC2)cc1 | ? | . | 10%[46.1 µM] | ? | 9%[46.1 µM] | . | . | 1.7%
COc1cccc2sc(Nc3nc4ccc(NC(C)=O)cc4s3)nc12 | -19% | -7% | 7.3µM* | 8% | ? | ? | 4% | -11%
CC(=O)Oc1ccc(/C=C2\N=C(C3CCCCC3)OC2=O)cc1 | -9% | 0% | 1% | . | -18% | . | -14% | .
Cc1csc(=O)n1CCC(=O)OCC(=O)Nc1ccc(Cl)cn1 | -6% | 3% | 17% | . | 4%[46.1 µM] | . | -17% | .
O=C(Oc1cccc(Cl)c1)N1CCOCC1 | -4% | 0% | 0% | . | ? | -1% | 4% | .
CCOC(=O)Cc1csc(NC(=S)NC(=O)c2cc(OC)c(OC)c(OC)c2)n1 | ? | -1% | . | . | . | 0% | 22% | .

Later entries
SMILES | StopGo reporter | SARS PLpro yeast | MARV entry inh | Cruzain inh noDet | LASV entry inh | NS1 function inh | RE007 growth inh | Cruzain Triton
CCCOc1ccc(Br)cc1CSC(=N)N | ? | ? | 7.3µM* | -3% | ? | 3% | 11% | -2.8%
Cc1cccc(-n2ncc3c(NCCc4ccc(S(N)(=O)=O)cc4)ncnc32)c1 | ? | -1% | . | -16% | . | -6% | -16% | -25%
COc1cc(C(=O)NCc2nnc(SCC(=O)Nc3nc4ccc(C)cc4s3)o2)cc(OC)c1OC | -7% | 14% | ? | 2% | 15% | 16% | 17% | -1.3%
O=C(CCC(=O)c1ccc(F)cc1)Nc1cccc(S(=O)(=O)Nc2cccc(Cl)c2)c1 | 2% | -9% | ? | -11% | ? | 20% | 19% | -3.4%
CCCNC(=O)c1cnn2c(C(F)F)cc(-c3ccccc3)nc12 | ? | . | ? | -10% | -21%[46.1 µM] | . | . | -6.7%
Cc1ccc([N+](=O)[O-])cc1S(=O)(=O)N(C(=O)c1ccncc1)c1ccc2oc3c(c2c1)CCCC3 | 37%[activator] | 4% | 2% | 13µM* | 2% | ? | 7% | -1.6%
Cc1ccc(NC(=O)Nc2nc3ccc(S(C)(=O)=O)cc3s2)cc1 | -22% | -3% | 3% | . | -1% | . | -17% | .
COC(=O)c1sccc1NC(=O)Nc1cccc([N+](=O)[O-])c1 | 43%[activator] | 11% | . | . | . | -14% | 7% | .
COc1ccc(Br)cc1CNC(=O)c1ccc2c(c1)N(Cc1ccc(C)cc1)CCS2 | 4% | . | -19%[46.1 µM] | 10µM* | . | . | . | -5.1%

From PubChem
